High-throughput results: PubChem, Broad Institute
FGF22 binding: binders of recombinant human FGF22 by thermal shift; Q9HCT0; SYPRO orange fluorescence; percent of sucrose octasulfate shift, DMSO zero; calls only at 9.99 µM; actives 1.5% (n = 340,000); AID 651658;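 active = melting point raised past a set limit in the mean and every replicate; inconclusive = no clear call; three in four hits are not shown here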
Target sequence (Q9HCT0 whole entry, looked up): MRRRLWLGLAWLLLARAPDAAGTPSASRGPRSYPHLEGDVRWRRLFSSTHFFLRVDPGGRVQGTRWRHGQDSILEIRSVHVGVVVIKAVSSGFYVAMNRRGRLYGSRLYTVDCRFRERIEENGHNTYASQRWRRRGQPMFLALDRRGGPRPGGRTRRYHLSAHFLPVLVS
MLL AF4-AF9 inh: inhibitors of human MLL-AF4/AF9 interaction; inhibition, % at 10 µM; AID 651704; actives 0.47% (n = 350,000); P42568; AlphaScreen, biotin-AF4 peptide binding to FLAG-AF9;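 active = every replicate reaching a set inhibition limit, whatever the replicate mean, cut at about 25% in these data; inconclusive = mean inhibition reaches that limit but some replicates miss it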;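 also: 0% = plate neutral control median and 100% = total signal loss; the record names both 10 and 1 µM as test concentration; the first replicate is given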
Target sequence (P42568 whole entry, looked up): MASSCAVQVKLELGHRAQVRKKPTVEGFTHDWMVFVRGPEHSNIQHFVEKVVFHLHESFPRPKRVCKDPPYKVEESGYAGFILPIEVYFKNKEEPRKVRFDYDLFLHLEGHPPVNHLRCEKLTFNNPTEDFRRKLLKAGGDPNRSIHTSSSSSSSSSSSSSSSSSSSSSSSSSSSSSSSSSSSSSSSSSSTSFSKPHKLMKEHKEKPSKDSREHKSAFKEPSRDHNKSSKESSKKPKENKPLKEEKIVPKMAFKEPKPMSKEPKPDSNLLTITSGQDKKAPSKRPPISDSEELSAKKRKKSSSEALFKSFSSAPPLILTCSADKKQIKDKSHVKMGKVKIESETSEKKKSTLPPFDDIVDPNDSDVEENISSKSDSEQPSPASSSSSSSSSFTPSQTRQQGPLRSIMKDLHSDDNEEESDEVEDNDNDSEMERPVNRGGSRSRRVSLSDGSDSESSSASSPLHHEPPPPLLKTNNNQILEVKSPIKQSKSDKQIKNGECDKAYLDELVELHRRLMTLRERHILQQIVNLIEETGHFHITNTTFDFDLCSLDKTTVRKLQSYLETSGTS
ALR H2O2 inh: blocks human ALR sulfhydryl oxidase activity; AID 485317; inhibition, % (no concentration beside the values); purified ALR, DTT oxidation, H2O2 HRP-luminol luminescence; actives 3.8% (n = 290,000); P55789;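 active = mean and each replicate at 75% or more; inconclusive = only one of the two met; inactive = neither met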;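 also: stock transfer was 7.5 nL into about 7.5 µL; 0% = neutral wells and 100% = wells with inactivated enzyme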
Target sequence (P55789 whole entry, looked up): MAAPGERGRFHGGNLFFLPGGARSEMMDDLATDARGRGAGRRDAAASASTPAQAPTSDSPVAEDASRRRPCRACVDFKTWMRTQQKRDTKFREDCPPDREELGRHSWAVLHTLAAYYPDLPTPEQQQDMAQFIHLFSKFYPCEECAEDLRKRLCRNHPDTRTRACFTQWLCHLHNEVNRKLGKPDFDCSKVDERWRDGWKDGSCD
RanGTP-Impb inh: disruptors of Ran-importin-beta complex formation – biochemical, FRET, CFP-Ran, YFP-importin-beta, homogeneous, primary screen | inhibition, % (test concentration not listed) | cell-free CFP-Ran/YFP-importin-beta FRET ratio | actives 1.1% (n = 300,000) | AID 2216;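 active = most replicates above 15%; inconclusive = exactly half above 15%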;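 also: 0% = DMSO wells and 100% = Ran loaded with GDP instead of GTP; wells of about 40 µL received 100 nL stock; the first replicate is given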
Beta apoptosis: beta cell apoptosis inhibition; INS-1E cytokine-induced death, ATP luminescence, 48 h; percent of positive-control rescue, neutral wells zero; actives 0.8% (n = 300,000); protection from apoptosis, % (no concentration beside the values);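 active = all replicates at 75% or more, or half of them and the mean; inconclusive = half reach 75% but not the mean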;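 also: 0% = cytokine-treated negative control wells and 100% = positive control rescue; higher means more ATP so stronger rescue from cytokine killing; wells of about 40 µL received 100 nL stock; the first replicate is given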
Calb FLC: affects C. albicans growth with fluconazole | AID 1979 | C. albicans CaCi-2 (fluconazole-resistant clinical isolate) + fluconazole, Alamar Blue growth, 48 h | growth inhibition, % (no concentration beside the values) | actives 0.57% (n = 300,000);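 active = most replicates above 75%; inconclusive = exactly half above 75%; inactive = most below 75%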;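 also: all wells also contain fluconazole at 8 µg/ml as a sub-toxic cotreatment; 0% = median of DMSO wells and 100% = median of geldanamycin control wells; wells of about 8 µL received 7.5 nL stock; the first replicate is given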
T cruzi inh: blocks replication of Trypanosoma cruzi | actives 1.4% (n = 300,000) | T. cruzi beta-gal in NIH3T3, luminescence, 90 h | inhibition, % (concentration not given with the values);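 active = mean inhibition across valid replicates above about 55%, limit read from the data; inconclusive = mean below that limit but half or more replicates reach it; inactive = mean below it, under half of replicates reach it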;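 also: signal also drops with host cell toxicity which is not excluded here; 0% = plate median of DMSO wells and 100% = zero luminescence signal; higher percent means less beta-gal luminescence so fewer parasites; stock transfer was 50 nL into about 50 µL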
Ecoli rRNA inh: inhibits bacterial ribosomal RNA function over humanized ribosomes | E. coli WT GFP vs humanized-ribosome RFP mutants, fluorescence, 24 h; active compounds read low; DMSO median 0, no signal -100 | GFP signal change (wild-type ribosome), % (no concentration beside the values) | actives 1.6% (n = 350,000);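 active = significant combined selectivity score with lowered wild-type GFP, culture density cut under 30%, mutant RFP and density less affected; inactive = any of these conditions unmet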; also: one replicate is shown; some compounds called inactive have numbers as strong as hits
Ecoli rRNA inh OD600: second read-out of Ecoli rRNA inh, no call of its own (marks repeat the call); OD600 change, %; measured here: OD600 growth;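 optical density of the mix in the first replicate; 0 = DMSO median and -100 = no signal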
Ecoli rRNA inh RFP: also measured in Ecoli rRNA inh; calls as there; RFP signal change, %; measured here: RFP humanized mutant strains;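 first replicate; 0 = DMSO median and -100 = no signal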
Numbers without * were called inactive; i = inactive; ? = inconclusive; nt = no result given. An excerpt; the hit share may differ from the screen's.

SMILES	FGF22 binding	MLL AF4-AF9 inh	ALR H2O2 inh	RanGTP-Impb inh	Beta apoptosis	Calb FLC	T cruzi inh	Ecoli rRNA inh	Ecoli rRNA inh OD600	Ecoli rRNA inh RFP
CN(C)c1ccc(C(=O)NC2(N3CCC3=O)CCCC2)cc1	i	3.2	100*	1.8	-1	-1	-1	15	16	-2.5
C=CCc1cccc(C=Nc2cccn3cc(-c4ccccc4)nc23)c1O	i	9.5	31	-0.3	-6	-6	-3	9	7	0.5
COc1ccc(N2CCC(CNC(=S)Nc3cccc(C)c3)C2)cc1 (stereo not drawn)	i	18	24	2.5	nt	-19	5	-5	0	11
COc1ccc2cc(C(=O)N3CCc4ccccc43)[nH]c2c1	i	-3.7	-14	1.9	-5	-4	6	3	12	4.2
O=C(CSc1cn[nH]n1)Nc1ccccc1C(F)(F)F	i	13	-11	1.5	nt	5	-13	5	8	-1.2
COc1ccc(C(=O)NCc2c(CC(C)C)oc(C)c2C(=O)O)cc1	nt	nt	20	5.4	-8	23	5	nt	nt	nt
CN=C1C=C/C(=N/N=c2\ccn(O)cc2C)C=C1C	i	6.2	41	-3.5	21	2	-2	-3	6	0.5
CC1CCN(S(=O)(=O)c2ccc(NC(=O)C3CSC4(C)CCC(=O)N34)cc2)CC1 (stereo not drawn)	i	0.7	-8	0.4	2	-6	2	0	-8	2.9
O=C(COC(=O)/C=C/c1ccc(F)cc1)Nc1ccc2[nH]c(=O)[nH]c2c1	i	-1.1	0	5.6	2	0	-8	1	-1	0.0
CC1CCN(S(=O)(=O)c2nnc(NC(=O)COc3ccccc3F)s2)CC1	i	5.9	-3	1.7	5	-5	8	10	11	-7.0
Cc1cc(C)n(CC(O)COc2ccccc2Br)n1 (stereo not drawn)	i	2.2	8	8.5	1	-58	-8	-9	-6	-0.3
COc1cccc2cc(C(=O)OCc3ccccc3)c(=O)oc12	i	1.9	1	2.7	-3	-26	-2	9	2	3.7
c1ccc(-c2n[nH]nc2-c2ccccc2)cc1	nt	nt	35	2.1	-2	32	-23	nt	nt	nt
CCc1ccccc1NC(=O)CSc1n[nH]c(C)c1[N+](=O)[O-]	nt	nt	nt	-0.9	5	-6	-1	nt	nt	nt
CC(C(=O)O)N1C(=O)/C(=C/C=C/c2ccco2)SC1=S (stereo not drawn)	nt	nt	97*	-12	-2	7	-12	nt	nt	nt
O=C(O)c1nn(CCSc2ccccc2F)c(=O)c2ccccc12	i	-1.3	nt	-1.4	2	-8	-6	8	4	0.1
Cc1ccccc1-n1c(-c2csc3ccccc23)n[nH]c1=S	nt	nt	nt	1.4	-1	54	5	nt	nt	nt
Cc1ccc(N2CC(C(=O)OCC(=O)c3ccc(F)cc3)CC2=O)cc1 (stereo not drawn)	nt	1.3	0	-0.3	-6	-2	-7	5	6	2.0
CC(=O)c1sc(NC(=O)c2ccc(Br)o2)nc1C	i	-7.4	3	0.9	7	-2	5	-1	13	1.0
Cc1ccccc1NC(=S)N1CCN(c2ccccc2)CC1	i	-3.3	-9	1.5	-6	-6	-4	17	15	2.8

The list goes on; the last 6 above are carried over.
SMILES	FGF22 binding	MLL AF4-AF9 inh	ALR H2O2 inh	RanGTP-Impb inh	Beta apoptosis	Calb FLC	T cruzi inh	Ecoli rRNA inh	Ecoli rRNA inh OD600	Ecoli rRNA inh RFP
CC(C(=O)O)N1C(=O)/C(=C/C=C/c2ccco2)SC1=S (stereo not drawn)	nt	nt	97*	-12	-2	7	-12	nt	nt	nt
O=C(O)c1nn(CCSc2ccccc2F)c(=O)c2ccccc12	i	-1.3	nt	-1.4	2	-8	-6	8	4	0.1
Cc1ccccc1-n1c(-c2csc3ccccc23)n[nH]c1=S	nt	nt	nt	1.4	-1	54	5	nt	nt	nt
Cc1ccc(N2CC(C(=O)OCC(=O)c3ccc(F)cc3)CC2=O)cc1 (stereo not drawn)	nt	1.3	0	-0.3	-6	-2	-7	5	6	2.0
CC(=O)c1sc(NC(=O)c2ccc(Br)o2)nc1C	i	-7.4	3	0.9	7	-2	5	-1	13	1.0
Cc1ccccc1NC(=S)N1CCN(c2ccccc2)CC1	i	-3.3	-9	1.5	-6	-6	-4	17	15	2.8
Cc1ccc(C)c(C(C)NC(=O)c2ccccc2Br)c1 (stereo not drawn)	i	0.3	-10	-2.4	0	-1	0	3	5	-2.2
COc1ccccc1OCCC(=O)OCCN1C(=O)c2ccccc2C1=O	nt	nt	8	2.5	-1	4	-8	nt	nt	nt
Cc1cc(Br)ccc1OCC(=O)NNC(=O)c1cnccn1	i	-2.6	-2	?	-3	-8	-47	-36	-45	-6.0
COC(=O)c1ccc2nc(NC(=O)C3CCCCC3)sc2c1	i	-5.3	-8	-2.6	3	-16	5	4	6	-0.2
C=C(C)C(=O)Nc1cccc(C2=NOC3(C2)C[C@@H](C(N)=O)N(C(=O)C2(C)CC2)C3)c1 (stereo partly drawn)	nt	nt	nt	-2.0	-1	10	8	nt	nt	nt
COc1cc(/C=N/Nc2cc(C)nc(N)n2)ccc1O	i	11	98*	-1.0	9	-3	-7	-11	-4	-5.2
C/C(=N\NC(=O)C(O)(c1ccccc1)c1ccccc1)c1ccc(C)o1	nt	1.1	-1	-0.8	-11	-9	-3	6	-4	-4.7
Cc1ccc(S(=O)(=O)N2CCN(C(=O)C3CCN(C(=O)c4ccccc4C)CC3)CC2)cc1C	i	0.9	-3	0.3	15	-16	7	-10	-13	-2.6
O=C(c1ccc2c(c1)OCO2)N1CCN(c2ccc(Cl)cc2)CC1	nt	nt	52	?	nt	1	-7	nt	nt	nt
O=C(CSc1nc(-c2ccc(F)cc2)cs1)N1CCN(C(=O)c2ccco2)CC1	nt	nt	-7	-1.3	2	-6	14	nt	nt	nt
CCCCNC(=O)C1(O)c2ccccc2NC(=O)N1c1ccc(Cl)cc1 (stereo not drawn)	i	0.5	-12	2.5	-2	0	-1	-26*	-20*	0.1*
CC(Sc1nnc(CNC(=O)c2ccccc2F)n1C)C(=O)Nc1nccs1 (stereo not drawn)	i	1.8	-2	0.3	1	2	-8	3	11	0.3
O=C(O)c1ccc(COc2ccc([N+](=O)[O-])cc2)o1	i	-2.2	nt	-5.4	4	1	-5	4	-5	-4.2
CN1C/C(=C/c2ccsc2)C(=O)/C(=C/c2ccsc2)C1	i	4.2	4	0.7	1	7	56*	nt	nt	nt
COc1cc(CNc2ccc3[nH]c(=O)[nH]c3c2)cc(Cl)c1OCC(=O)NC(C)(C)C	nt	nt	98*	4.7	-11	-5	-27	nt	nt	nt
COc1cccc(NC(=O)CCCNC(=O)Cn2cnc3sc(C)c(C)c3c2=O)c1	i	2.4	nt	5.0	-3	10	4	15	6	0.1
Nn1cnnc1N/N=C/c1cccc(Cl)c1Cl	i	3.4	-31	0.3	3	-4	-9	-3	1	-2.5
CCOc1ccc2c(c1)[N+](C)(C)C(C)(C)C=C2C	nt	-0.9	-8	-0.2	13	-8	-20	-1	0	-8.5
CCCCCC(=O)Nc1ccc(S(=O)(=O)Nc2nccnc2OC)cc1	i	nt	-4	1.3	-6	-1	-26	3	-11	4.4
CCCN1CC(=O)N2C(c3ccccc3)c3[nH]c4ccccc4c3C[C@H]2C1=O (stereo partly drawn)	i	-20	-6	-1.9	-4	9	-6	4	5	0.7
CCOCCCNC(=O)CN1C(=O)NC(Cc2c[nH]c3ccccc23)C1=O (stereo not drawn)	i	-1.2	-2	2.1	-1	9	-5	4	9	1.8
COc1ccc(OC)c(NC(=O)C(CCSC)NS(=O)(=O)c2cccs2)c1 (stereo not drawn)	i	0.2	-4	7.1	-5	13	4	0	3	1.1
Cc1cc(Nc2ccc(F)cc2C)n2ncnc2n1	i	-1.1	-17	-1.1	-1	-14	-15	11	7	0.1
COc1ccc(NC(=O)CSc2nnc(C3CC3)n2C)cc1S(=O)(=O)N1CCCCC1	i	0.2	-1	nt	-9	nt	nt	nt	nt	nt
CN(C)Cc1c(C(=O)Nc2ccccc2)[nH]c2ccccc12	i	-10.0	2	2.2	-4	0	-12	7	14	-3.1
O=c1cc(CO)oc(CN2CCCC2)c1O	nt	nt	-5	-2.4	-6	-3	-12	nt	nt	nt
CCCCNC(=O)CSc1nnc(-c2ccc(S(=O)(=O)N3CCCC3)cc2)n1C	nt	nt	-2	?	nt	-11	4	nt	nt	nt
CCN1CCn2c3c(c4cc(C)ccc42)CCCC31 (stereo not drawn)	nt	nt	98*	-1.5	0	1	7	nt	nt	nt
CCOCCCNC(=O)c1ccc2c(c1)N(CC)C(=O)c1ccccc1S2=O (stereo not drawn)	i	-0.6	-44	-0.4	-3	-13	-1	1	10	1.1
CCCCNC(=O)N1CCCC(C(=O)c2cc(C)c(OC)c(C)c2)C1 (stereo not drawn)	i	-0.6	-2	1.1	-4	1	1	7	13	1.3
CN(c1ccccc1C(=O)NCc1ccco1)S(C)(=O)=O	nt	nt	nt	2.1	-2	9	-18	nt	nt	nt
O=c1c(=Nc2ccccc2O)c(=O)c2ccccc12	i	-2.1	-14	2.8	-2	-23	-40	8	4	16
COc1ccc(CNC(=O)C(C)N(Cc2ccccc2OC)C(=O)c2snc(C(N)=O)c2N)cc1 (stereo not drawn)	i	-1.0	-14	-1.8	0	0	8	0	5	-0.7
c1csc(-c2nn3c(Cn4nnc5ccccc54)nnc3s2)c1	nt	nt	-2	-0.7	4	26	-9	nt	nt	nt

Rewritten in CSV form: part of the list above
Structure,FGF22 binding,MLL AF4-AF9 inh,ALR H2O2 inh,RanGTP-Impb inh,Beta apoptosis,Calb FLC,T cruzi inh,Ecoli rRNA inh,Ecoli rRNA inh OD600,Ecoli rRNA inh RFP
COc1ccc(NC(=O)CSc2nnc(C3CC3)n2C)cc1S(=O)(=O)N1CCCCC1,i,0.2,-1,nt,-9,nt,nt,nt,nt,nt
CN(C)Cc1c(C(=O)Nc2ccccc2)[nH]c2ccccc12,i,-10.0,2,2.2,-4,0,-12,7,14,-3.1
